# KCNQ2 pot: potentiators of rat KCNQ2 potassium channel; O88943; B-score at 10 µM; hit rate 0.54% among 310,000; CHO-K1 KCNQ2, FluxOR thallium flux fluorescence; hits give high values; AID 2239;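 active = fluorescence ratio B-score at least 3 SD of library B-scores, with initial fluorescence B-score within 3 SD, cut at about 5.3 in these data; same plate scores as AID 2156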;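 note: B-score of peak minus minimum over baseline fluorescence ratio after K+ and Tl+ stimulus; positive B-score means potentiation of KCNQ2 with more thallium influx and brighter signal; only the inactives scoring about 0 or higher are listed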
# Target sequence (O88943 whole entry, looked up): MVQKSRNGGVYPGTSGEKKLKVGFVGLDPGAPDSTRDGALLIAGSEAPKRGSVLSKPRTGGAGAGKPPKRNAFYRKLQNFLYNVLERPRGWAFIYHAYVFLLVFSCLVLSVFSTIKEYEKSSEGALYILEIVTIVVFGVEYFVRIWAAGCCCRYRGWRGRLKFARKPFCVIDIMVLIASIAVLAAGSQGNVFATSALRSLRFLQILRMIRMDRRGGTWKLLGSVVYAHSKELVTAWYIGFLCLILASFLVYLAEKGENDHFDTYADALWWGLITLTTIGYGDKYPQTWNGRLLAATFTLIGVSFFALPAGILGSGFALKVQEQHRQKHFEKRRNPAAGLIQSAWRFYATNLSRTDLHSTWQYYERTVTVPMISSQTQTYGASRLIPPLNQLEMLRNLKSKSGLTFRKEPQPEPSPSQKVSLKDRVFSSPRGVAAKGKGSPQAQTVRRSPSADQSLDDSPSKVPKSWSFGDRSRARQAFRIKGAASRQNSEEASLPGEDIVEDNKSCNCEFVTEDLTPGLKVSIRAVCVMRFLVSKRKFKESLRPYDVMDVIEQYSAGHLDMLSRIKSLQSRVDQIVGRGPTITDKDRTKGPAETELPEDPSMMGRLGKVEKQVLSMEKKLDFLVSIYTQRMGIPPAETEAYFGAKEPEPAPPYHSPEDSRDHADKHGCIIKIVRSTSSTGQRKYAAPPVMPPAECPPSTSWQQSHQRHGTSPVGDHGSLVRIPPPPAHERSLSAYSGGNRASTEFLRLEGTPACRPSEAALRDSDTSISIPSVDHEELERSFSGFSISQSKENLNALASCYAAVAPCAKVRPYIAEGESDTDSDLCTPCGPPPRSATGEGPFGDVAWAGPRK
# KCNQ2 pot baseline: recorded beside KCNQ2 pot, whose call it bears; B-score; compound at 10 µM; measured here: initial fluorescence intensity artifact check;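 brightness before thallium and not channel activity; 0 = typical well and far values either way flag optical interference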
# * hit, by the source's call. These rows are one share of the data; rates above refer to the full screens.
SMILES,KCNQ2 pot,KCNQ2 pot baseline
O=C(c1ccco1)N1CCN(C2CCCC2)CC1,0.13,-1.03
C=CCN(CC(=O)NCc1ccc(F)cc1)C(=O)c1csnn1,1.09,0.29
Cc1ccc(-c2nc(N)sc2CC(=O)OCC(=O)NC2CCCC(C)C2C)cc1 (stereo not given),0.59,1.07
CN(C)c1ccc(NC(=O)COC(=O)c2cc(=O)c3ccccc3o2)cc1,0.47,-0.18
Cn1c(=O)n(CC(=O)Nc2cccnc2)c2ccccc21,0.51,0.52
O=C(O)c1ccc(N/N=C/C(Br)=C/c2ccccc2)cc1,0.49,0.14
COCc1cc(=O)n2[nH]c(-c3cccs3)cc2n1,1.43,-0.22
O=C(Cn1ccc([N+](=O)[O-])n1)N1CCCCC1,0.02,-1
COc1cccc(CNC2CCCC2)c1,0.76,-1.82
CCOC(=O)C1=C(COC(=O)c2cc(OC)c(OC)cc2[N+](=O)[O-])NC(=O)NC1C (stereo not given),0.96,2.43
CC(=O)Nc1ccc(C(=O)CN2CCN(c3ccccc3)CC2)cc1,0.55,-1.75
CCCn1c(=S)[nH]c2cc(C(=O)N3CCN(C(=O)OCC)CC3)ccc2c1=O,0.12,1.61
CCn1cc(C(=O)O)c(=O)c2cc(F)c(N3CCN(S(=O)(=O)c4ccc(NC(=O)OC)cc4)CC3)cc21,1.92,-1.36
Cc1ccc(NC(=O)CSCC(N)=O)cc1C,0.05,1.49
O=C(COC(=O)CCC(=O)c1ccc(Cl)cc1)NC1CC1,0.05,-0.53
Cc1cc(C)n(CC(O)COc2ccccc2)n1 (stereo not given),0.24,1.44
Cn1c(=O)c2c(SCC(=O)Nc3cccc(F)c3)nc(-c3ccco3)nc2n(C)c1=O,2.01,-0.04
O=C(CCc1nc(-c2ccccc2F)no1)Nc1ccc(Oc2ccccc2)cc1,0.33,0.31
CN(C)CCNc1ccc(Cl)cc1[N+](=O)[O-],0.31,-0.07
N#Cc1c(F)cccc1NCc1cccnc1,0.36,-0.04
CC(=O)N(c1ccccc1)C(C)c1nc(C#N)c(C#N)nc1C (stereo not given),0.04,-0.41
O=C(O)CCCC(=O)Nc1ccccc1C(=O)O,0.01,-0.22
CCSc1ccccc1C(=O)NCc1ccc(S(N)(=O)=O)cc1,0.24,1.14
C=CCn1c(SCC(=O)Nc2ccc3c(c2)OCCO3)nnc1-c1ccccn1,0.23,-0.09
COc1ccccc1CN1CC(C(=O)NCCc2ccccc2Cl)CCC1=O (stereo not given),1.49,0

# Entries listed so far with a COOH group, in the order listed:
SMILES,KCNQ2 pot,KCNQ2 pot baseline
O=C(O)c1ccc(N/N=C/C(Br)=C/c2ccccc2)cc1,0.49,0.14
CCn1cc(C(=O)O)c(=O)c2cc(F)c(N3CCN(S(=O)(=O)c4ccc(NC(=O)OC)cc4)CC3)cc21,1.92,-1.36
O=C(O)CCCC(=O)Nc1ccccc1C(=O)O,0.01,-0.22

# (further entries)
SMILES,KCNQ2 pot,KCNQ2 pot baseline
Cc1cc(C(=O)Nc2ccccc2C(F)(F)F)no1,1.96,0.24
CCN1CCN(C(=O)CCCn2c(C)c3cnn(-c4ccccc4)c(=O)c3c2C)CC1,0.08,0.01
Cc1ccccc1C(=O)NC(=S)NCCC1=CCCCC1,0.92,-0.09
Cc1ccc(NC(=O)C(=O)Nc2ccc(C)cn2)nc1,1.81,-0.25
O=c1[nH]nc(SCc2nnc(-c3ccc([N+](=O)[O-])cc3)o2)n1C1CCCCC1,0.17,-1.03
COc1ccc(NC(=O)C2CCCN(S(=O)(=O)c3cccs3)C2)cc1OC (stereo not given),0.34,0.76
Cc1ccc(N2C(=O)C(CN3CCOCC3)C2c2ccccc2)cc1 (stereo not given),0.03,0.68
O=C(Nc1ccc(F)cc1F)c1ccc(-n2cncn2)nc1,0.81,1.8
COC(=O)Cn1cnc2c(nnn2Cc2ccc(Cl)cc2)c1=O,0.6,-0.02
CC1=C(C(=O)OC(C)C)C(c2cccs2)C(C(=O)OC(C)C)=C(C)N1,0.01,-1.21
Cc1ccc(N(CC(O)CN2CCCCC2)S(=O)(=O)c2ccccc2[N+](=O)[O-])cc1 (stereo not given),1.79,0.4
CSCCCNC(=S)N1CCN(S(=O)(=O)c2cccc(C(F)(F)F)c2)CC1,0.01,-0.02
O=C(Nc1nnc(S(=O)(=O)N2CCOCC2)s1)c1ccc(Cl)cc1,0.37,0.04
Cc1cc(C(=O)COC(=O)c2ccc[nH]c2=O)c(C)n1CCc1ccc(F)cc1,0.88,-0.37
CCn1c(=O)n(CC)c2cc(N3CCCC3)c(NC(=O)c3ccccc3C)cc21,0.67,0.06
Cc1cc2nc(Cl)c(Cl)nc2cc1C,0.07,1.21
COc1ccc(CN2CCNC(=O)C2CC(=O)NC2CCCC2)cc1OC (stereo not given),0.03,2.26
CCCCOC(=O)c1ccc(NC(=O)c2ocnc2C)cc1,1.11,1.81
CCn1ccnc1CN1CCN(CC=C(C)C)C(CCO)C1 (stereo not given),0.08,0.67
CSc1ccc(S(=O)(=O)N2CCC(C(=O)Nc3cccnc3)CC2)cc1,0.3,0.64
COC(=O)c1ccccc1NC(=O)c1ccccc1NS(C)(=O)=O,0.29,-0.05
Cc1ccc(N2CC(NC(=O)C(=O)c3c(C)[nH]c4ccccc34)CC2=O)cc1 (stereo not given),2.68,-0.16
COc1ccc(-c2cc(C3CCN(c4cc(Cl)nc(N)n4)CC3)[nH]n2)cc1,1.45,0
CC(C)(C)S(=O)(=O)Cc1nc(-c2ccc(Cl)c(Cl)c2)cs1,0.07,0.63
CC(NC(=O)OC(C)(C)C)C(=O)Oc1cc2oc(=O)cc(-c3ccccc3)c2cc1Cl (stereo not given),0.51,0.55

# Retrieved by compound from the entries so far:
SMILES,KCNQ2 pot,KCNQ2 pot baseline
CN(C)c1ccc(NC(=O)COC(=O)c2cc(=O)c3ccccc3o2)cc1,0.47,-0.18
CSc1ccc(S(=O)(=O)N2CCC(C(=O)Nc3cccnc3)CC2)cc1,0.3,0.64
O=C(CCc1nc(-c2ccccc2F)no1)Nc1ccc(Oc2ccccc2)cc1,0.33,0.31
Cc1cc2nc(Cl)c(Cl)nc2cc1C,0.07,1.21
COC(=O)c1ccccc1NC(=O)c1ccccc1NS(C)(=O)=O,0.29,-0.05

# Following part
SMILES,KCNQ2 pot,KCNQ2 pot baseline
O=C(CCN1C(=O)/C(=C/c2cccs2)SC1=S)Nc1ccc(C(=O)O)cc1,0.17,-0.17
CC(Oc1ccccc1Cl)C(=O)N1CCCN(C)CC1 (stereo not given),0.14,-0.02
COC(=O)CN1C(=O)[C@H]2[C@@H](c3ccc(C)o3)N3C(=O)CN(CC4CC4)C(=O)[C@@]3(C)[C@H]2C1=O,0.21,-0.41
CCCCOP(=O)(c1ccc(N(C)C)cc1)C(O)c1cc(OC)ccc1OC (stereo not given),0.85,-1.23
COc1ccccc1CCNC(=O)c1cnn2c(C(F)F)cc(C)nc12,1.87,-2.01
COc1ccc(N(CC(=O)NCCSc2ccccn2)S(=O)(=O)c2ccc(C)cc2)cc1OC,0.11,-0.84
Cn1cccc1CC(=O)NNC(=O)Nc1ccc(Cl)cc1,0.02,-1.22
O=C(CSc1cccc[n+]1[O-])c1ccc(Cl)s1,0.8,1.49
CC(C)Cn1cnc2c1c(=O)[nH]c(=O)n2Cc1ccccc1,1.95,-0.01
O=C(COC(=O)CCN1C(=O)c2cccc([N+](=O)[O-])c2C1=O)NC1CCS(=O)(=O)C1 (stereo not given),0.02,0.58
Cc1ccc(NS(=O)(=O)c2cc(Br)cnc2N)c(Cl)c1,0.02,-2.08
O=[N+]([O-])c1cc2c(cc1/C=N/Nc1nc(N3CCCC3)nc(N3CCCC3)n1)OCO2,0.6,0.17
COc1ccc(NC(=S)Nc2ccccc2OC)c(OC)c1,0.93,-1.24
COc1ccc(-c2cc(-c3ccco3)[nH]c(=O)c2C#N)cc1OC,0.09,1.55
ClCC1CN(Cc2ccccc2Cl)CCO1 (stereo not given),0.12,0.06
CC12CCC(C(=O)NNC(=O)c3ccc(Br)cc3)(OC1=O)C2(C)C (stereo not given),0.08,0.16
CC1CCN(C(=O)CNC(=O)CNC(=O)Cc2ccccc2)CC1,0.49,-0.41
Cc1c(C#N)c2ncn(CCCN(C)C)c(=O)c2n1-c1ccccc1,1.09,-0.07
CCN1C(=O)c2cccc3c(S(=O)(=O)Nc4ncccc4C)ccc1c23,1.32,-0.23
O=C1NC[C@@H](Cc2ccc(O)cc2)N(CCc2cccc(F)c2)C1=O,2.03,2.07
Cc1ccc(N2CC(C(=O)N3CCc4ccccc4C3)CC2=O)cc1 (stereo not given),0.76,-1.53
C=CCc1cc(OC)ccc1OCCCCn1cncn1,1.51,0.25
CCOC(=O)C1CCN(C(c2cccs2)c2sc3nc(C)nn3c2O)CC1 (stereo not given),0.04,0.05
Cc1csc(=O)n1CC(=O)OCC(=O)c1c(N)n(C)c(=O)n(C)c1=O,2.42,0.05
Cc1ccc(NC(=O)c2cccc3cccnc23)cc1,0.5,1.13
SMILES,KCNQ2 pot,KCNQ2 pot baseline
CCOC(=O)CNS(=O)(=O)c1ccc(S(=O)(=O)NC2CC2)cc1,1.08,1.16
CCN1C(=O)[C@@H]2[C@H](C1=O)[C@@H]1CC(C(=O)OC)=C[C@@H](C(=O)OC)C3C1=C(C(=O)C3(CC)CC)[C@@H]2C (stereo not given in full),0.94,-0.68
O=C(CN1C(=O)C2C3C=CC(C3)C2C1=O)Nc1ccc(F)cc1 (stereo not given),1.3,0.76
CCOc1ccc2oc(C(=O)NCC3CCCO3)c(C)c2c1 (stereo not given),1.23,-1.32
COc1ccc(CCNC(=S)Nc2ccccc2)cc1,1.02,0.95
CC1Cc2ccccc2N1S(=O)(=O)c1cccc(C(=O)c2nccn2C)c1 (stereo not given),0.09,-1.9
O=S(=O)(c1ccccc1)N1CCC2(CC1)OCCN2S(=O)(=O)c1cccs1,0.02,-1.13
Clc1cccc2sc(-c3nnc(-c4ccccc4)o3)c(Cl)c12,1,-0.73
O=C(O)CNC(=O)c1ccc(Oc2c(F)c(F)c(Oc3ccc(C(=O)NCC(=O)O)cc3)c(F)c2F)cc1,0.53,-1.47
Cn1c(=O)cc(OCCCC(=O)Nc2cccnc2)c2ccccc21,0.7,-0.79
Cc1ccc(NC(=O)c2cc(S(=O)(=O)N3CCC4(CC3)OCCO4)ccc2F)cc1,1.12,1.59
Cc1nn(-c2ccccc2)c2sc(C(=O)NC3CC3)cc12,1.22,2.56
CS(=O)(=O)N(CC(=O)N1CCC(C(N)=O)CC1)c1ccc(Cl)c(C(F)(F)F)c1,0.92,-0.71
COc1ccc(C(=O)Nc2ccc(Cl)c(Cl)c2)c(OC)n1,0.48,-0.53
CCOC(CC(=O)NNC(=O)c1c(-c2ccccc2Cl)noc1C)OCC,0.18,0.06
CCc1cccc(CC)c1N(COC)C(=O)Cn1c(C(C)O)nc2ccccc21 (stereo not given),0.64,-1.02
O=C(NCc1ccc2c(c1)OCO2)c1ccc(N2C(=O)C3CCCCC3C2=O)cc1 (stereo not given),0.53,-0.08
CC1(C)CC(NC(=O)CC2CCCCC2)CC(C)(C)N1,0.56,1.91
Cc1ccc(C)c(S(=O)(=O)N2CCN(C(=O)Cn3c(C(F)(F)F)nc4ccccc43)CC2)c1,1.07,-0.05
Cc1cc(N2CCN(C)CC2)nc2ccc(NC(=O)c3ccc(Br)o3)cc12,0.03,0.49
Cn1c(COc2ccccc2)nnc1SCC(=O)Nc1ccc(N2CCOCC2)c(Cl)c1,0.56,-0.21
Cc1ccc(S(=O)(=O)N/N=C\c2ccc3c(c2)OCO3)cc1,0.72,-0.09
Cc1ccc(C)c(N2CCN(C(=O)CCCN3C(=S)NC(C)(C)CC3C)CC2)c1 (stereo not given),2.22,-0.34
COc1cc2c(cc1OC)CN(Cc1cccs1)CC2,0.23,-0.93
O=C(NCc1cccnc1)C(=O)NCC1OCCN1S(=O)(=O)c1ccccc1 (stereo not given),0.49,1.13

# Reformatted: results already given.
KCNQ2 pot	KCNQ2 pot baseline	molecule
1	-0.73	Clc1cccc2sc(-c3nnc(-c4ccccc4)o3)c(Cl)c12
0.53	-1.47	O=C(O)CNC(=O)c1ccc(Oc2c(F)c(F)c(Oc3ccc(C(=O)NCC(=O)O)cc3)c(F)c2F)cc1

# Returning to the listing, repeating the 2 entries before the break.
SMILES,KCNQ2 pot,KCNQ2 pot baseline
COc1cc2c(cc1OC)CN(Cc1cccs1)CC2,0.23,-0.93
O=C(NCc1cccnc1)C(=O)NCC1OCCN1S(=O)(=O)c1ccccc1 (stereo not given),0.49,1.13
COCCCN(Cc1ccco1)C(=O)Cn1ncc2c(=O)oc3ccc(C)cc3c21,1.56,0.02
CCOC(=O)N1CCC(NC(=O)CCC(=O)N2CC(C)Oc3ccc(Cl)cc32)CC1 (stereo not given),1.83,-0.03
Cc1cccc(C)c1NC(=S)NN1CCN(C)CC1,1.46,0.05
COc1ccc(-c2csc(NC(=O)Cc3ccccc3F)n2)c(OC)c1,0.81,-0.25
CSc1nc(=S)n(-c2cc(C)ccc2C)c(C)c1C(C)=O,0.66,-0.95
NC(=O)Cc1nc(-c2ccccc2)cs1,1.64,-1.51
COc1ccc(C(=O)CSc2nnc(NC(=O)C3CC(=O)N(c4cccc(OC)c4)C3)s2)cc1 (stereo not given),0.38,-1.06
COc1ccc(-c2cc(C(=O)NCc3ccco3)c3ccccc3n2)cc1OC,0.04,0.66
O=C(CC(=O)Nc1ccccc1[N+](=O)[O-])Nc1ccccc1[N+](=O)[O-],2.77,0.15
COc1cc(OC)cc(-c2nnc(Nc3nc4c(F)cccc4s3)o2)c1,3.3,-0.7
CC1(C)CC(NC(=O)C2CCC(=O)N(C3CC3)C2)CC(C)(C)C1 (stereo not given),2.04,-1.45
Cc1csc(NC(=O)c2ccc3nc[nH]c3c2)n1,1.45,0.02
O=C(Nc1ccc(Cl)c([N+](=O)[O-])c1)c1ccco1,0.04,-0.57
COc1ccc(/C=N/NC(=O)Cc2csc(Nc3cccc(C(F)(F)F)c3)n2)cc1C,1.37,-0.16
CCc1ccc(CNC(=O)C2CCC(=O)N2C2CCCCC2)cc1 (stereo not given),0.84,-1.18

# Assay outcomes deposited in PubChem by Johns Hopkins Ion Channel Center.
